S aureus helic: S. aureus DNA helicase inhibition; purified S. aureus helicase, fluorescence unwinding assay; about half of the hits fall short of the stated cut; inhibition, %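 (tested at about 80 µM)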; 120,000 compounds, 0.05% hits;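 active = both duplicates at 50% or more, or one of them with a favoured structure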;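 also: 0% = mean of negative control wells and 100% = mean of positive control wells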
MgrA-DNA mod: modulators of Staphylococcus aureus MgrA DNA binding. fluorescence polarization. inhibition, %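 (about 10 µg/mL by stock and volumes)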. 84,000 compounds, 0.13% hits;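 active = above 50% in either of two replicates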;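 also: 0% = protein plus DNA without compound and 100% = DNA alone without protein; higher means less MgrA bound to DNA so lower polarization; one replicate is shown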
Starred values were filed as active, the others as inactive; x = no result given. This is a subset, so the mix of outcomes need not match the whole.

S aureus helic	MgrA-DNA mod	SMILES
9	-2.4	COC(=O)C1=CN(Cc2ccc(Cl)cc2)C=C(C(=O)OC)C1c1cccs1
10	-3.0	CC(C)CCNC(=O)c1ccc(CSc2nc3ccncc3n2Cc2ccccc2)cc1
10	x	Cc1cccc(NC(=O)CN2C(=O)CSC(C)C2=O)c1 (configuration not stated)
x	-0.8	O=S(=O)(Cc1ccc(Cl)cc1Cl)CC(O)Cn1ccc(C(F)(F)F)n1 (configuration not stated)
3	-0.7	NC(=O)CSc1cn(CC(=O)N2CCOCC2)c2ccccc12
x	0.5	O=C(NC(Nc1ccccc1)(C(F)(F)F)C(F)(F)F)c1ccccc1
x	-1.0	CCOC(=O)c1csc(-c2ccc3nonc3c2)n1
-2	x	C/C(=N\NC(=O)c1cc(-c2ccco2)nc2ccccc12)c1cccnc1
x	-0.4	O=c1[nH]c(-c2ccc(Cl)cc2)nc2ccc(N3CCCC3)cc12
x	3.8	O=C(O)c1ccc(NC(=O)C2CC(=O)N(Cc3ccc4c(c3)OCO4)C(=Nc3ccc(F)cc3)S2)cc1 (configuration not stated)

(continued)
S aureus helic	MgrA-DNA mod	SMILES
-5	x	COC(=O)c1ccc(COC(=O)c2c(-c3ccccc3)noc2C)o1
-1	0.8	O=C(CCS(=O)(=O)Cc1ccccc1)Nc1ccc(F)cc1F
8	x	CCN(CC)C(=O)CSc1nc2cc(Cl)ccc2o1
8	-1.8	CC(C)CN1C(=O)c2ccc(C(=O)NCc3ccccn3)cc2C1=O
-5	x	O=C1CCC/C(=N\NC(=S)NCCc2ccccc2)C1
-16	x	COCCOc1cc2nc[nH]c(=O)c2cc1OCCOC
9	x	COc1ccc(NC(=O)Nc2cn(C)c3ccccc23)c(OC)c1
x	0.3	CCOc1cccc(/C=N/c2nnc(SC)s2)c1O
-9	3.0	CC1(C)CC(=O)c2cc(C(=O)N3CC[N+](C)(C)CC3)c(=O)n(-c3ccc(Cl)cc3)c2C1
x	-1.1	NC(=O)c1cc2c(s1)-c1cc(Cl)ccc1SC2

7 of the compounds above, as a markdown table:
| Compound | S aureus helic | MgrA-DNA mod |
| --- | --- | --- |
| CCN(CC)C(=O)CSc1nc2cc(Cl)ccc2o1 | 8 | x |
| O=C(CCS(=O)(=O)Cc1ccccc1)Nc1ccc(F)cc1F | -1 | 0.8 |
| CC(C)CN1C(=O)c2ccc(C(=O)NCc3ccccn3)cc2C1=O | 8 | -1.8 |
| NC(=O)c1cc2c(s1)-c1cc(Cl)ccc1SC2 | x | -1.1 |
| COCCOc1cc2nc[nH]c(=O)c2cc1OCCOC | -16 | x |
| CC1(C)CC(=O)c2cc(C(=O)N3CC[N+](C)(C)CC3)c(=O)n(-c3ccc(Cl)cc3)c2C1 | -9 | 3.0 |
| COc1ccc(NC(=O)Nc2cn(C)c3ccccc23)c(OC)c1 | 9 | x |

(listing goes on)
S aureus helic	MgrA-DNA mod	SMILES
0	-3.8	O=C(O)Cc1csc2nc(-c3ccccc3)cn12
-7	x	COc1ccccc1NS(=O)(=O)c1ccc2oc(=S)n(CN3CCCC3)c2c1
-15	x	Cc1ccc(S(=O)(=O)N(C)c2ccc(OCC(=O)N3CCN(c4ncccn4)CC3)cc2)cc1
x	-3.0	Cc1ccc2oc(-c3ccccc3)c(C(=O)O)c(=O)c2c1
1	-1.8	O=C(NCc1cccnc1)C(C(=O)c1ccc(F)cc1)n1ccccc1=O (configuration not stated)
12	-3.0	CN1CCN(c2ccccc2NC(=O)c2cc3c(s2)-c2ccccc2OC3)CC1
x	0.1	O=S(=O)(c1cc(Cl)sc1Cl)N1CCN(Cc2ccc3c(c2)OCO3)CC1
x	-0.1	Cc1c(C(=O)NCc2ccc3c(c2)OCO3)cnn1-c1ccc(F)cc1
-15	0.0	O=C(Cc1ccccc1)OCc1csc(-c2ccccc2)n1
3	-0.7	Cc1cc(C)c2[nH]c(=O)c(CN(C(=O)Nc3ccccc3F)C3CC3)cc2c1

The listing continues:
S aureus helic	MgrA-DNA mod	SMILES
-13	x	c1ccc(CNC2=NCCC2)nc1
8	-2.0	CC1SC(c2ccccc2)N(Cc2ccccc2)C1=O (configuration not stated)
-9	0.8	Cc1cc(C(=O)OCC(=O)N2C(C)CCCC2C)c2ccccc2n1 (configuration not stated)
17	x	CN(c1ccccc1)c1nc(N2CCCC2)nc(-n2ccnc2)n1
5	x	CCCS(=O)(=O)c1csc(C(=O)OC)c1NNC(=O)C(C)C
x	0.2	COc1ccc(Br)c(C(=O)Nn2c(-c3cccc(C)c3)nc3ccccc3c2=O)c1
30	x	Cc1c(Cl)cccc1NC(=O)n1ncc2c(C)cccc21
2	1.1	COc1ccccc1C(C1=C(OC(C)=O)COC1=O)c1cc2c(cc1OC(C)=O)OCO2 (configuration not stated)
5	x	COC(=O)C(C)N(C#N)c1nc(C)cc(C)n1 (configuration not stated)
-4	x	O=C(CS(=O)(=O)c1ccccc1)N(Cc1ccccn1)c1nc2ccccc2s1

The results go on:
S aureus helic	MgrA-DNA mod	SMILES
3	x	O=S(=O)(c1ccccc1F)N1CCC(c2nc3ccccc3s2)CC1
1	x	O=C(O)COc1ccccc1/C=C1/SC(=S)N(c2cccnc2)C1=O
x	0.2	Cc1cc(/N=C\N(C)C)n2c(nc3ccccc32)c1C#N
-1	x	COc1ccc(Oc2ncnc3c2cnn3-c2ccccc2)cc1
3	1.6	N#Cc1c(/N=C/c2cccnc2)sc2c1CCC2
x	-0.4	O=C(c1cc(F)cc2c1OCOC2)N1CCN(c2ccc(F)cc2)CC1
4	x	Cc1ccc(OCC(=O)OCc2c(C)noc2C)cc1C
15	-1.5	CCc1ccc(N2CC(C(=O)O)CC2=O)cc1 (configuration not stated)
2	3.2	O=C(NCNC(=O)c1ccccc1)c1ccccc1
x	2.9	O=C(O)C1CCC1C(=O)Nc1nnc(C2CC2)s1 (configuration not stated)

Next records
S aureus helic	MgrA-DNA mod	SMILES
10	x	CC(Oc1ccccc1C(=O)c1cc(C#N)c(=O)n(C2CCCCC2)c1)C(=O)N1CCOCC1 (configuration not stated)
x	38	CCCC1Nc2ccc(C(=O)O)cc2C2C=CCC12 (configuration not stated)
12	x	O=C(O)COc1ccc2c(-c3ccccc3)cc(=O)oc2c1
8	0.9	Cc1cc(N2C(=O)C3C4c5ccccc5C(c5ccccc54)C3C2=O)no1 (configuration not stated)
6	15	Cc1nnc(SCC#N)n1C
x	3.0	CCN(CC)CCOc1ccc2c(c1)C(=O)c1cc(OCCN(CC)CC)ccc1-2
11	1.3	CC(=O)/C=C(\C)Nc1ccccc1S
-20	x	COc1ccccc1N=c1scc(-c2ccc(S(=O)(=O)N3CCOCC3)cc2)n1C
-3	1.9	CCNc1nnc(-c2ccccc2)s1
1	5.5	S=c1nc(Cc2cccs2)[nH]c2ccccc12

Next results:
S aureus helic	MgrA-DNA mod	SMILES
8	x	Cc1ccc(-c2nnc(N3CCOCC3)c3ccccc23)cc1C
-15	2.3	O=C1OC(N2CCN(Cc3ccc4c(c3)OCO4)CC2)c2ccccc21 (configuration not stated)
x	-1.7	Cc1ccc(=O)n(Cc2ccccc2)n1
-19	-1.6	COc1ccc(Cc2nc3ccccc3[nH]2)cc1OC
x	-3.2	O=C(O)c1oc(C(=O)O)c(OCc2ccccc2)c1OCc1ccccc1
-8	x	CCN1CCc2nc(N/C=C/C(=O)C(F)(F)F)sc2C1
10	x	O=C(Cn1ncn2c(cc3ccccc32)c1=O)N1CCCCC1
19	x	CC1(C)CC2CC(C)(CN2C(=O)CN2CCN(C/C=C/c3ccccc3)CC2)C1 (configuration not stated)
14	-1.3	O=C(/C=C/c1ccc2c(c1)OCO2)NC(=S)NC1CCCC1
-9	x	O=C1C2C3c4ccccc4C(c4ccccc43)C2C(=O)N1c1ccncc1 (configuration not stated)

(further entries)
S aureus helic	MgrA-DNA mod	SMILES
-5	x	CC1CN(C(=O)CSc2nc(N)cc(=O)[nH]2)CC(C)O1 (configuration not stated)
7	x	O=C(COC(=O)C1CCN(S(=O)(=O)c2cccs2)CC1)NCc1ccccc1
x	-2.8	O=C(CSc1nc2sc3c(c2c(=O)[nH]1)CCCC3)NCCCN1CCOCC1
17	-5.9	COc1ccc(NC(=O)c2ccc3c(c2)NC(=O)CO3)cc1OC
x	-1.6	CC(C)(O)C12CC3CC(CC(C3)C1)C2
-20	x	O=S(=O)(NCc1ccc2c(c1)OCO2)c1ccc2c(c1)OCCO2
-8	x	CNCc1cnn(Cc2ccccc2)c1
-4	x	O=C(CCc1nnc(-c2ccccc2)o1)OCc1c(F)cccc1Cl
x	-1.4	CN(C)c1ccc(C(=O)N2CCCc3ccccc32)cc1
7	x	COC(=O)c1cnn2c(C)c(Cc3ccc(C)cc3)c(C)nc12

Next part
S aureus helic	MgrA-DNA mod	SMILES
0	-0.4	COc1ccccc1-c1c(C)nn2c(N3CCCC3)cc(C)nc12
13	x	CC(C)CCNC(=O)C1CCCN(S(=O)(=O)c2cccc3nsnc23)C1 (configuration not stated)
-9	0.9	CCOC(=O)c1cccc(NC(=O)N2CCC(CN3CCCCC3)CC2)c1
1	x	CCc1ccc(-c2nc(CN3CCC(C(=O)NCCc4ccccc4)CC3)c(C)o2)cc1
-1	16	Cc1cc(N)cc(C(=O)O)c1O
6	-2.3	OCCNc1nc2ccccc2n1CCOc1ccccc1
x	0.5	CCOc1ccc(CC2S/C(=N\c3ccccn3)NC2=O)cc1 (configuration not stated)
16	0.2	NNC(=O)/C(=C/c1ccccc1)NC(=O)c1ccccc1
1	x	O=C1NC(=O)N2CCCC12 (configuration not stated)
19	-1.1	CN(CC(O)COc1ccc2oc3ccccc3c2c1)C1CCCCC1 (configuration not stated)

Later entries
S aureus helic	MgrA-DNA mod	SMILES
4	x	CCCSc1nnc(CNC(=O)c2cccc(F)c2)n1-c1ccc(F)cc1
x	-2.5	Cc1cc(S(=O)(=O)NCC2CC2)c(Cl)cc1Cl
12	x	O=C(OCC(=O)N1CCc2ccccc2C1)c1ccccc1
-8	x	COCCNC(=O)CN1CCc2ccccc2C1
2	-1.7	Cc1cccc(C)c1NC(=O)C1(N(Cc2ccccc2)C(=O)c2ccc(-n3cnnn3)cc2)CCCC1
23	-4.8	C/C=C(\C)CN1CCN(c2ccccc2)CC1
8	4.5	NCCCc1ccccn1
10	x	N#Cc1ccc(OCC(=O)N2CCSc3ccccc32)cc1
x	-0.9	CN1CCC(CNC(=O)Nc2csc3ccccc23)CC1
-17	x	COC(=O)CCNc1ccccn1

Next records
S aureus helic	MgrA-DNA mod	SMILES
-21	x	CN(C(=O)Cc1noc2ccccc12)c1cccc(C(F)(F)F)c1
17	1.2	COc1cc(OC)nc(C(=O)c2ccc(Cl)cc2)n1
3	x	CCc1ccccc1N(C)S(=O)(=O)c1ccc(-c2cc(C)no2)s1
0	x	Cc1cc(Cl)ccc1OCC(=O)N/N=C/c1ccc(OC2OC(CO)C(O)C(O)C2O)cc1 (configuration not stated)
21	6.6	Cc1ccc(S(=O)(=O)/N=C2\C=CC(=O)c3ccccc32)c(C)c1
x	-1.2	N#Cc1cc(I)c(C#N)c(I)c1
-12	1.1	CCOC(=O)C(N)Cc1ccccc1 (configuration not stated)
-21	x	C=CCn1sc(N)c(C(=O)OCC)c1=S
-18	x	C(=N\n1c(-c2cc3ccccc3o2)csc1=NCC1CCCO1)/c1ccc2c(c1)OCCO2 (configuration not stated)
0	0.6	c1ccc(C2NCCc3sccc32)cc1 (configuration not stated)

Three entries already listed, sorted by the number in S aureus helic, ascending:
SMILES	S aureus helic	MgrA-DNA mod
C(=N\n1c(-c2cc3ccccc3o2)csc1=NCC1CCCO1)/c1ccc2c(c1)OCCO2 (configuration not stated)	-18	x
COc1cc(OC)nc(C(=O)c2ccc(Cl)cc2)n1	17	1.2
Cc1ccc(S(=O)(=O)/N=C2\C=CC(=O)c3ccccc32)c(C)c1	21	6.6

Other entries.
S aureus helic	MgrA-DNA mod	SMILES
1	x	N#Cc1ccccc1Sc1ccccc1C(=O)NN1C(=O)NC2(CCCCC2)C1=O
-32	x	Oc1ccc2oc3c(c2c1C=Nc1ccccc1)CCCC3
x	2.8	O=C(Nc1cccc(NC(=O)c2cccc(S(=O)(=O)N3CCCCC3)c2)c1)c1ccc([N+](=O)[O-])cc1
-14	x	Cn1ccnc1C(N)c1ccccc1 (configuration not stated)
6	x	COc1cc(OC)cc(C(=O)OCC(=O)c2cc3ccccc3o2)c1
x	-0.4	O=C1c2ccccc2C(=O)N1Nc1ccc(N2CCOCC2)cc1
1	x	Cc1cc(=O)n(C)c(=O)n1CCN(C)C
-11	x	COc1cccc(CNC(=O)C2CCN(S(=O)(=O)c3ccccc3)CC2)c1
-7	-3.9	C(#Cc1ccccc1)CN1CCN(C(c2ccccc2)c2ccccc2)CC1
3	0.2	O=C(c1ccc2nc3ccccc3c(=O)n2c1)N1CCN(c2ccc(Cl)cc2)CC1

(more compounds)
S aureus helic	MgrA-DNA mod	SMILES
x	-0.9	CS(=O)(=O)c1ccc(-c2csc(-c3ccc(-c4csnn4)cc3)n2)cc1
-17	x	CCOc1ccc(CNC(=O)C2CCN(c3nc4ccccc4n4c(C)nnc34)CC2)cc1OC
5	x	CC(NC(=O)Cc1ccccc1)C(c1ccccc1)N1CCOCC1 (configuration not stated)
-3	x	C=CCn1c(=S)sc2c(=O)n(CCOc3cccc(Br)c3)cnc21
9	-0.6	Cc1c(C(N)=O)sc2nc[nH]c(=O)c12
14	x	CC1(C)CC(=O)C2=C(C1)NC1=C(C(=O)CC(C)(C)C1)C2c1cccc(O)c1
-1	1.0	COCCNC(=O)c1cc2nc3c(c(C(F)(F)F)n2n1)CCc1ccccc1-3
4	0.4	CC1CC(C)CN(C(=O)C2c3ccccc3Oc3ccccc32)C1 (configuration not stated)
-8	-0.9	CC1CN(C)C(c2ccccc2)C(C)C12NC(=O)NC2=O (configuration not stated)
8	x	CCOC(=O)c1ccc(NC2=CC(=O)CC(c3ccco3)C2)cc1 (configuration not stated)
15	x	CCN(CC(=O)Nc1cc(C)on1)CC(=O)NC1CCS(=O)(=O)C1 (configuration not stated)
-17	x	CCOc1ccc(/C=N/N2C(=O)NC(C)(CC)C2=O)c(O)c1 (configuration not stated)
16	-4.8	CC(C)c1c(O)nc(SCCC(=O)O)[nH]c1=O
